High-throughput results from PubChem.
TRPV1 potentiator: potentiators of human vanilloid receptor 1 (TRPV1) | Q8NER1 | TRPV1-expressing cells, Fluo-8 calcium influx, capsaicin EC20 potentiation; host cell line not named in the record; control for the full effect not named in the record | potentiation, % at 8.33 µM | hit rate 0.02% among 320,000; active means potentiation above 80%; inconclusive means 30% to 80%; inactive means below 30%; further: 0% is about no effect
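Cells expressing TRPV1 were dye-loaded with Fluo-8 and read kinetically: 10 s baseline, 3 min after compound (agonist portion), then 2 min after EC20 capsaicin (allosteric enhancer portion). Calcium-bound dye fluorescence at 480/520 nm.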
Sfp PPTase inh: inhibitors of Bacillus subtilis Sfp phosphopantetheinyl transferase; Q9F4F7; Biochemical Sfp PPTase activity, qHTS; Potency, µM, without a hit: max response, negative = inhibition, usual class: inhibitors; hit rate 3.5% among 310,000; AID 1490; active means well fitted inhibition curve with a large enough effect; inconclusive means small, poorly fitted or top-dose-only effect, or another doubt; inactive means no such curve, though single readings can be large or run the other way;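 further: the enzyme is Sfp with the accession as filed and its product quenches rhodamine fluorescence; potency means the concentration at half of the fitted maximal effect; 0% = enzyme reaction without inhibitor and -100% = no enzyme wells; top concentration of the series not given in the record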
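After 15 min at room temperature with compound, 15 nM Sfp received 5 uM rhodamine-CoA plus 12.5 uM BHQ-2-ybbR (50 mM Hepes pH 7.6, 10 mM MgCl2). Rate came from the fluorescence difference over 30 min, ex 525/em 598 nm.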
gsp ag: activates gsp, the McCune-Albright syndrome mutation; AID 624287; gsp mutant cells, cAMP HTRF, 30 min; control for the full effect not named in the record; hit rate 0.13% among 340,000; Potency, µM (highest dose often 76.9 µM), without a hit: at the highest dose activation (cAMP increase), usual class: activators; active = well fitted activation curve with a large enough effect; inconclusive = small, poorly fitted or top-dose-only effect, or another doubt; inactive = no such curve, though single readings can be large or run the other way; cell line not stated here;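 further: phosphodiesterase inhibitor Ro 20-1724 added with compounds to block cAMP breakdown; potency means the concentration at half of the fitted maximal effect; nearly all actives have a fitted effect of over 60% in size; about a fifth of the inactives were tested at one dose only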
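Cells in DMEM/10% FBS with G418 were pretreated with compounds in DMSO plus […] (300 uM stock) for 30 min at 37C. cAMP was measured by HTRF (cAMP-d2 plus anti-cAMP antibody-K) after 30 min at room temperature.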
Menin MLL FP FL: inhibitors of human menin-MLL interaction, wild-type MLL peptide. Fluorescence polarization, fluorescein-MLL peptide displacement from menin. FP activity change, % at 61.4 µM. 290,000 tested, under 10 active; inconclusive = falling polarisation curve, or a change in total fluorescence; inactive = total fluorescence flat and polarisation flat or rising; no compound was filed as active; the % refers to the polarisation; negative = inhibition;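 further: % of control where 0% means no effect; inhibitors lower the polarisation; unlabelled MLL peptide was the positive control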
TRPML1 blocker: blocks the human TRPML1 channel; Q9GZU1; TRPML1-inducible cells, Ca2+ dye fluorescence, FDSS; hits give low values; inhibition of EC80 agonist-evoked calcium signal; activity change, negative = inhibition, % (concentration not given with the values); hit rate 0.02% among 390,000; in the data active means activity change below about -50%; inconclusive means about -30% to -50%; inactive means above about -30%;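 further: stimulus is agonist 54-4 at its EC80 concentration; on the % scale 0 is the no-effect control and ±100 the full control effect; compound concentration not given in the record; the text of the record puts the active cut at -80%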
Target sequence (Q9GZU1 whole entry, looked up): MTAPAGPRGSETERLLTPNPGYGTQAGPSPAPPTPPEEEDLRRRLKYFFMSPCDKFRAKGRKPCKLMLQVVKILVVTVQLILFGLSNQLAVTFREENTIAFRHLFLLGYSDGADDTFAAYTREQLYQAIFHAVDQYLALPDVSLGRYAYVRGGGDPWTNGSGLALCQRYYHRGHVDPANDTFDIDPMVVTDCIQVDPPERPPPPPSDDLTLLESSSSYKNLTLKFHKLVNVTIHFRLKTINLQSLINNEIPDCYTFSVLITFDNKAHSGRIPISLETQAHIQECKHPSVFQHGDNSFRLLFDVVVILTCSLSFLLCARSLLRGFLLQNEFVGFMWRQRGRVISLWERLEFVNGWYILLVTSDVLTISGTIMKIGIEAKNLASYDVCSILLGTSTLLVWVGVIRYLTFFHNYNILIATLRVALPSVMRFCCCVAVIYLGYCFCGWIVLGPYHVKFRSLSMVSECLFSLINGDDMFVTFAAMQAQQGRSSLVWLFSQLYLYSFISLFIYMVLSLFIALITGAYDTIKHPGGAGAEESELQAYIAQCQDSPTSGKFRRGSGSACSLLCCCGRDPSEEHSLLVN
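TRPML1-DL cells, Tet-induced overnight (~16 h, 37 °C) at 1,500 cells/well, were loaded with Ca8 no-wash dye plus quencher for 45-90 min at room temperature. Compounds were pinned during FDSS kinetic reading; agonist 54-4 at EC80 (4 uM final) then added.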
ClpP mod: qHTS Assay for Activators of ClpP; purified B. subtilis ClpP, FRET peptide cleavage, 20 min; Potency, µM (top dose mostly 57.5 µM), for inactives: top-dose activity change, negative = active; hit rate 1.9% among 340,000; active = well fitted falling curve with a large enough effect; inconclusive = small, poorly fitted or top-dose-only effect; inactive = no such curve, though single readings can be large or run the other way; further: potency means the concentration at half of the fitted maximal effect; the source files actives as falling curves though it sought activators and does not explain the sign; nearly all actives have a fitted effect of over 65% in size; many hits overshoot -100%
Target sequence (P80244 whole entry, looked up): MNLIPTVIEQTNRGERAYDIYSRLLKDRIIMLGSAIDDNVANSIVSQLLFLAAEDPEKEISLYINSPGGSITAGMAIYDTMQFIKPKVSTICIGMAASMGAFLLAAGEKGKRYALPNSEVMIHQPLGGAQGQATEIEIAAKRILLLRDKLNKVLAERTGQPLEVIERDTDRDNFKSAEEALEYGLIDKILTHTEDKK
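Purified B. subtilis ClpP, 10 microg/mL final in Tris/HCl pH8 with KCl, BSA, glycerol and Tween-20, cleaved an Abz/nitrotyrosine-quenched decapeptide. Fluorescence (ex 320, em 430) was read at 0 and 20 min at room temperature. Delta was normalized to 5.8 microM ADEP and DMSO/no-enzyme controls.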
gsp antag: antagonizes gsp, the McCune-Albright syndrome mutation | gsp-mutant cells, cAMP HTRF, 30 min; control for the full effect not named in the record | Potency, µM (series often up to 76.9 µM), for the others: top-dose activity change, negative = inhibition, usual class: inhibitors | hit rate 0.4% among 340,000; active = falling curve of any shape with a large fitted effect; inconclusive = falling curve, mostly with a smaller effect; inactive = flat or rising curve; cell line not stated here;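 further: intracellular cAMP measured with PDE inhibitor Ro 20-1724 present during compound exposure; potency means the concentration at half of the fitted maximal effect; on the % scale 0 is the no-effect control and ±100 the full control effect; nearly all actives have a fitted effect of over 65% in size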
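Measurement of cellular cAMP by homogeneous time-resolved fluorescence following a 30 min compound exposure at 37C. The PDE inhibitor […] was present throughout; the assay buffer was DPBS with 0.05% BSA and 0.005% Tween 20.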
Numbers without * were called inactive; ? = inconclusive; nt = no result given; & = joins results of further samples; ! = not active in a repeat; [ ] = dose if it differs, or a comment.

no.	mol	TRPV1 potentiator	Sfp PPTase inh	gsp ag	Menin MLL FP FL	TRPML1 blocker	ClpP mod	gsp antag
1	OC1(c2cccnc2)CCN(Cc2nnnn2Cc2ccccc2)CC1	6	15%	-1%[15.4 µM]	-2.5	1	0.4%	12%
2	CCOC(=O)CC1ON(C)C(=O)N1c1ccc([N+](=O)[O-])cc1 (configuration not stated)	-21	2%	?	5.3	4	0.7%	-2%
3	Cn1ccnc1SCc1cc(=O)[nH]c2ccccc12	6	?	2%	-0.3	-2	0.6%	5%
4	CCOC(=O)c1sc(NC(NC(=O)c2ccco2)(C(=O)OC)C(F)(F)F)nc1C (configuration not stated)	5	-2%	21%	0.7	7	60%	6%
5	COc1ccccc1N1CCN(S(=O)(=O)c2ccc(Cl)s2)CC1	-10	7%	-45%[inhibitor]	-0.5	-4	-0.6%	-22%
6	N#Cc1c(/N=C/c2ccco2)sc2c1CCC2	-8	-12%	18%	5.3	1	?	-2%
7	CC(C)CC(=O)NC(C)C(c1cccs1)N1CCOCC1 (configuration not stated)	-11	1%	6%	-0.9	-9	-1.2%	3%
8	O=[N+]([O-])c1c(C(Cl)Cl)nn(-c2ccccc2)c1N1CCOCC1	-13	2%	21%	0.0	-3	1.4%	8%
9	N#Cc1c(-c2cccc(Br)c2)cc(-c2cccnc2)nc1N	2	-14%	28%	7.2	0	32µM*	5%
10	COc1cc2c(cc1OC)CN(C(=O)c1cc(S(=O)(=O)N3CCCCC3)ccc1Cl)CC2	5	8%	25%	nt	-12	0.0%	-30%
11	Cc1ccc(N2C(=O)c3cccc(Oc4ccc(Cl)cc4)c3C2=O)c(C)c1	10	13%	-118%[inhibitor]	3.6	23	-3.9%	0%
12	O=C(Cc1cccs1)Nc1nnc(CCc2ccccc2)s1	-8	-3%	-3%	2.9	-2	1.1%	1%
13	CN(C)c1nc2c(c(=O)[nH]c(=O)n2C)n1CCOc1ccccc1	-5	5%	?	0.3	-3	1.3%	2%
14	CCOC(=O)CSc1nnc(CNc2ccc(Cl)cc2)n1-c1ccccc1	11	?	2%	3.3	0	-3.4%	?
15	CC1CCN(CCCNC(=O)Cn2ncc3c([nH]c4ccccc43)c2=O)CC1	0	8%	-15%	2.3	-7	3.4%	6%
16	CCOC(=O)c1cnn(-c2ccccc2)c1NC(=O)CSc1nnc(-c2cccs2)n1CC	4	5%	19%	-1.4	14	0.9%	-13%
17	CC(C)(C)c1ccc(SCC(N)=O)cc1	-13	-3%	3%	3.9	-11	-1.4%	7%
18	Cc1ccc(S(=O)(=O)NCCc2nc3ccccc3[nH]2)cc1	-2	11%	25%	2.9	3	nt	8%
19	CC(C)CC(NC(=O)c1ccc(Cl)cc1)C(=O)O (configuration not stated)	10	16%	12%	-1.3	-5	-3.2%	15%
20	OCCN1CCN(Cc2nc(-c3cccc(Cl)c3)no2)CC1	1	17%	11%	-6.6	-13	nt	13%
21	Cc1ccc(CN(CC(=O)NCCc2ccccc2)C(=O)CCCC(=O)Nc2cc(C)on2)cc1	2	9%	3%	-0.2	23	-2.2%	-3%
22	Cn1ncc(Br)c1C(=O)NC1CCCCC1	4	24%	9%	1.1	2	nt	5%
23	O=C(CCNC(=O)c1ccc([N+](=O)[O-])cc1)Nc1nc2ccccc2[nH]1	-12	nt	-29%[15.4 µM]	nt	21	nt	6%
24	Cc1cccc(NC(=O)c2ccc(S(=O)(=O)NCc3cccnc3)cc2)c1	6	6%	18%[15.4 µM]	nt	6	-2.0%	-29%
25	CCOC(=O)c1cc2c(ccn2C)n1CC(=O)N1CCC(C)CC1	-7	-8%	-5%	-13	-11	-9.7%	-3%
26	CCCCc1ccc(NC(=O)C2CCCC2)cc1	nt	nt	-4%	nt	1	nt	1%
27	COc1ccc(-c2coc3cc(O)cc(O)c3c2=O)cc1	6	50µM*!	nt	?	-9	-4.5%	-20%
28	NC(Cc1ccc(OC(F)F)cc1)C(=O)O (configuration not stated)	-2	-21%	?	2.2	nt	-2.3%	17%
29	N#Cc1c2ccc(OCC(=O)NCc3ccco3)cc2n2ccccc12	21	4%	7%	-0.3	-4	nt	3%
30	O=C(CN1CCN(S(=O)(=O)c2ccccc2F)CC1)NC1CCCC1	-11	-3%	2%[15.4 µM]	-1.7	0	nt	2%
31	CCCCN1C2CCCC1CC(NC(=O)c1ccc(OC)c(OC)c1)C2 (configuration not stated)	-3	12%	18%	2.3	-6	-3.8%	8%
32	Cc1ccccc1NC(=O)c1cc(S(=O)(=O)Nc2cccc(C(=O)O)c2)ccc1Cl	21	18%	-22%	-3.3	-11	-0.8%	3%
33	COc1ccc(/C=C/C(=O)OCC(=O)N2c3ccccc3CC2C)cc1OC (configuration not stated)	nt	nt	-33%	nt	8	1.4%	nt
34	CCNC(=S)NCCN1CCOCC1	4	22%	9%	-0.6	10	-0.6%	-15%
35	CCCCN1Cc2cc(C(=O)c3cc(F)ccc3O)cnc2NC1=O	4	-4%	-44%[inhibitor]	1.1	-7	-11%	-5%
36	CCc1cc2ccc(C)cc2nc1SCC(=O)N1CCN(C(=O)c2ccco2)CC1	-12	?	-3%	1.8	4	-2.4%	0%
37	Cc1ccc(SCc2[nH]nc3c2C2(C(=O)Nc4ccc(F)cc42)C(C#N)=C(N)O3)cc1 (configuration not stated)	13	10%	-11%	12	-11	-0.7%	13%
38	CCOc1ccccc1CN1CCNC(=O)C1CC(=O)NC1CCCCCCC1 (configuration not stated)	nt	nt	-47%[inhibitor]	nt	-6	1.6%	6%
39	Cc1cc(C(F)(F)F)nn1CC(=O)Nc1cccnc1	nt	-1%	-1%	0.6	-17	-0.1%	1%
40	CCC(C)C(NC(=O)C1CCC(C)CC1)C(=O)NCc1ccco1 (configuration not stated)	-4	-9%	-14%	-18	6	nt	-15%
41	CCCCOC(=O)c1ccc(S(N)(=O)=O)o1	29	12%	-6%	6.6	1	-1.6%	8%
42	O=C(Oc1ccc(Cl)c2cccnc12)c1ccco1	5	14%	-13%	-1.2	35	-1.1%	-5%
43	COc1ccc(N=CC2CCCCC2=O)c([N+](=O)[O-])c1 (configuration not stated)	nt	nt	-32%[inhibitor]	nt	-1	0.3%	-14%
44	CCc1noc(C)c1C(=O)Oc1ccc(N(C)S(=O)(=O)c2ccc(C)cc2)cc1	-10	nt	41%	nt	71	0.3%	?
45	CC(C)OCCCNC(=O)Cn1nc(-c2ccccc2)ccc1=O	8	-1%	-20%	0.7	-10	-11%	-2%
46	COc1ccc([N+](=O)[O-])cc1NC(=O)Cc1c(Cl)cccc1Cl	1	-20%	1%[15.4 µM]	1.4	-11	0.7%	2%
47	CCCC[C@]12Cc3cc(C#N)ccc3C(O1)c1c(cc(-c3ccccc3)oc1=O)O2	?	3%	nt	6.5[11.7 µM]	nt	nt	nt
48	O=C(c1ccc(Cn2c(=S)[nH]c3ccccc3c2=O)cc1)N1CCN(c2ccccn2)CC1	0	12%	-10%	0.0	18	nt	?
49	CC(C(=O)NC1CCCc2ccccc21)N1C(=O)C2CCCCC2C1=O (configuration not stated)	-8	nt	11%	nt	1	-0.3%	17%
50	O=C(C[n+]1cc(-c2ccc(Cl)cc2)n2c1CCCCC2)c1ccccc1	-10	2%	-7%[15.4 µM]	-1.5	39	0.7%	-27%

Next section:
no.	mol	TRPV1 potentiator	Sfp PPTase inh	gsp ag	Menin MLL FP FL	TRPML1 blocker	ClpP mod	gsp antag
51	COc1ccc(S(=O)(=O)N2CCOC23CCN(S(=O)(=O)c2ccc([N+](=O)[O-])cc2)CC3)cc1	4	nt	9%	nt	9	1.1%	-3%
52	N#Cc1ccc(CN2CCN(CC(=O)NCCc3ccc(Cl)cc3Cl)CC2)cc1	0	-7%	-7%	1.4	51	nt	-6%
53	CC(=O)Nc1cccc(NC(=S)Nc2ccc(F)c(Cl)c2)c1	3	35µM*	4%	5.5	14	0.1%	1%
54	CCOc1ccc(CN2C(=O)c3ccccc3Sc3ccc(C(=O)NCc4ccc5c(c4)OCO5)cc32)cc1	-3	nt	nt	nt	28	-1.9%	nt
55	Cc1ccc(C)c(NC(=O)COC(=O)c2cc(=O)c3ccccc3o2)c1	1	nt	40%[15.4 µM]	nt	31	nt	7%
56	Cc1ccc(OS(=O)(=O)c2cn(C)c(=O)n(C)c2=O)cc1C	13	6%	6%[15.4 µM]	-3.7	7	-1.9%	-2%
57	CC(NC(=O)CN1CCOCC1)c1ccccc1 (configuration not stated)	8	13%	4%	-0.1	5	-2.1%	5%
58	Cc1nnc(SCC(=O)Nc2nccs2)n1N	1	nt	-6%[15.4 µM]	nt	-20	nt	12%
59	CC1CN(S(=O)(=O)c2cccc(C(=O)Nc3ccccc3N3CCOCC3)c2)CC(C)O1 (configuration not stated)	-4	nt	-10%[15.4 µM]	nt	-5	-2.7%	-26%
60	CCSc1nnc(NC(=O)c2ccccc2)s1	-12	-7%	9%	1.0	28	0.8%	9%
61	O=C(Cc1coc2cc3c(cc12)CCC3)NC1CCCCCCC1	-4	-5%	-8%	10	9	1.3%	?
62	COc1cc(SC)ccc1C(=O)N1CCc2ccccc21	9	-7%	-10%[15.4 µM]	-0.2	-8	-4.4%	-8%
63	CCN1C(=O)c2ccccc2Sc2ccc(C(=O)NCCCN(CC(C)C)CC(C)C)cc21	0	-3%	-1%[15.4 µM]	-8.9	-14&-4	0.8%&1.6%	7%
64	CCN(CC(=O)NC(C)C)C(=O)[C@@H](NC(=O)c1ccco1)C(C)C	-1	29%	-2%[15.4 µM]	0.3	3	-2.8%	3%
65	COc1cc(C(=O)Nc2ccc(NC(=O)C3CCCCC3)nc2)cc(OC)c1OC	9	10%	1%[15.4 µM]	-4.6	14	nt	-31%
